MenB inh: M. tuberculosis MenB inhibitors, primary screen, biochemical, absorbance | 1,4-dihydroxy-2-naphthoyl-CoA synthase (Mycobacterium tuberculosis (strain ATCC 25618 / … | MenB enzyme assay, absorbance read-out; some hits fall short of the stated cut | inhibition, %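 (about 12 µg/mL by stock and volumes)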 | 100,000 compounds, 0.43% hits;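 active = mean of two replicates above 30%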;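 also: 0% = no compound and 100% = wells with inactive enzyme; the first replicate is given; strong numbers were not always called active; inactives centre near -10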
Target sequence (P9WNP5 whole entry, looked up): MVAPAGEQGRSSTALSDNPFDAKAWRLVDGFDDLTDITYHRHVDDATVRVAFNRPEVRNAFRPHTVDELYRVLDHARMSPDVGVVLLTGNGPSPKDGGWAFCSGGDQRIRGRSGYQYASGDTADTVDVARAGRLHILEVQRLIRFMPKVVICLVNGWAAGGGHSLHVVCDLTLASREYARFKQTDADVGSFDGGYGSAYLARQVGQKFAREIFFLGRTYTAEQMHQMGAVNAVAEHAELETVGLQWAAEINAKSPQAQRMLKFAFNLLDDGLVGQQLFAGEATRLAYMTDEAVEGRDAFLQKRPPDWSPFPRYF
Mtb MbtI inh: MbtI salicylate synthase inhibitors, primary screen, biochemical, fluorescence intensity; P9WFX0; purified MbtI enzyme, fluorescence intensity read-out; inhibition, %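 (about 17 µg/mL by stock and volumes)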; 100,000 compounds, 0.89% hits; AID 493033, 2011;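 active = above 50% in both replicates, above 80% if mildly self-fluorescent; inactive = the rest, strongly fluorescent compounds included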;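 also: 0% = mean of negative and 100% = mean of positive controls; one replicate is shown; some compounds called inactive have numbers as strong as hits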
PV pol inh: poliovirus RdRp elongation inhibitors, primary screen, biochemical, fluorescence polarization, total intensity; Genome polyprotein (Poliovirus type 1 (strain Mahoney)), P03300; poliovirus polymerase elongation; hits give low values; % elongation, % (compound at 16.7 µg/mL); 150,000 compounds, 0.66% hits; in the data active = % elongation below about 90%; also: some results filed as inactive read as strong as hits
Target sequence (P03300 1749-2209 limits assumed): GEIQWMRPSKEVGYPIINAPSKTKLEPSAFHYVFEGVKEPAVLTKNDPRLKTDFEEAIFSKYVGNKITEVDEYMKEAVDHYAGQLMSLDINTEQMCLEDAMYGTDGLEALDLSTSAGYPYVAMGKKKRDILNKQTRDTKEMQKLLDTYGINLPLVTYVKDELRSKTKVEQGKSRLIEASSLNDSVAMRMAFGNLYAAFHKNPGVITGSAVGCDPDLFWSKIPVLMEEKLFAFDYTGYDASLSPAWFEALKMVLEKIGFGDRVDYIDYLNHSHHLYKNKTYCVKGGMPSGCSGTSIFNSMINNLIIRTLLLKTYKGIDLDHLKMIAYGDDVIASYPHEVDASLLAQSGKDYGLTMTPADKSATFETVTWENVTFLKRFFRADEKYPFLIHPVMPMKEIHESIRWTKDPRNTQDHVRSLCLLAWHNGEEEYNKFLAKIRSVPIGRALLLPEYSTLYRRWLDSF
PV pol inh intensity: second read-out of PV pol inh, no call of its own (marks repeat the call); % elongation; measured here: total intensity read-out; formula for this scale not given here;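 total fluorescence in place of polarization; lower means less elongation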
Starred values were filed as active, the others as inactive; . = no result given; & = joins results of further samples.

[1] COc1ccc(S(=O)(=O)N2CCCC2C(=O)n2nc(C)cc2C)cc1 (stereo not given)
[2] CCOC(=O)c1nc2ccccc2c(C)c1C
[3] O=C(CN1CC(C(=O)N2CCOCC2)Oc2ccccc21)Nc1ccc2c(c1)CCC2 (stereo not given)
[4] Nc1nc(SCCSc2ccc(F)cc2)n[nH]1
[5] O=C(CN1C(=O)c2ccccc2S1(=O)=O)NCc1ccncc1

screen / no.	1	2	3	4	5
MenB inh	-26	.	9	-15	5
Mtb MbtI inh	-14	-7	-3	-2	-15
PV pol inh	105	101	101	104	101
PV pol inh intensity	110	105	106	108	102

[6] O=C(c1ccc(CN2C(=O)CCn3nccc32)cc1)N1CCOCC1
[7] Oc1ccccc1N=Cc1ccccc1
[8] O=C(C1CCCC1)N1CCCC1c1nc2ccccc2s1 (stereo not given)
[9] NCCSC1CC(=O)N(c2ccc(Cl)cc2)C1=O (stereo not given)
[10] COc1ccc(OC)c(CNC(=O)CN2Cc3ccccc3C2=O)c1

screen / no.	6	7	8	9	10
MenB inh	6	-56	-27	-15	-2
Mtb MbtI inh	-1	-1	-6	8	-3
PV pol inh	103	100	115	100	101
PV pol inh intensity	97	100	131	103	103

[11] CC(C)CN(CC(C)C)C(=O)CCn1c(=O)oc2ccccc21
[12] NS(=O)(=O)c1ccc(N(C(=O)Cn2nnc3ccccc32)C(C(=O)NC2CCCC2)c2cccs2)cc1 (stereo not given)
[13] OCc1cnn(-c2ccccc2)c1
[14] NC(=O)C(Cc1ccccc1)N1C(=O)c2ccccc2C1=O (stereo not given)
[15] C/C(=N\OC(=O)c1cccc(C(F)(F)F)c1)c1csc(-c2ccno2)n1

screen / no.	11	12	13	14	15
MenB inh	-19	3	-2	-24	10
Mtb MbtI inh	-2	3	-15	-1	3
PV pol inh	101	103	103	102	101
PV pol inh intensity	105	100	108	106	103

[16] O=c1c(O)c(-c2ccc(O)c(O)c2)oc2cc(O)cc(O)c12
[17] CCN1CCN(C(=O)CCC(=O)c2cccs2)CC1
[18] COC(=O)CCC1(C(=O)O)CCOC(C)(C)C1 (stereo not given)
[19] CCCn1c2ccccc2c2cnn(CC(=O)N(C)c3ccccc3)c(=O)c21
[20] Nc1c(C(=O)c2ccc(Br)cc2)sc2nc(-c3cccs3)ccc12

screen / no.	16	17	18	19	20
MenB inh	-8&-2&-1	-8	-23	0	-8
Mtb MbtI inh	-4&-14&-6	-2	-14	18	.
PV pol inh	95&101&100&101	103	101	104	45
PV pol inh intensity	100&102&102&101	94	102	103	251

From entry 4 up to 16, as listed above:
[4] Nc1nc(SCCSc2ccc(F)cc2)n[nH]1
[5] O=C(CN1C(=O)c2ccccc2S1(=O)=O)NCc1ccncc1
[6] O=C(c1ccc(CN2C(=O)CCn3nccc32)cc1)N1CCOCC1
[7] Oc1ccccc1N=Cc1ccccc1
[8] O=C(C1CCCC1)N1CCCC1c1nc2ccccc2s1 (stereo not given)
[9] NCCSC1CC(=O)N(c2ccc(Cl)cc2)C1=O (stereo not given)
[10] COc1ccc(OC)c(CNC(=O)CN2Cc3ccccc3C2=O)c1

screen / no.	4	5	6	7	8	9	10
MenB inh	-15	5	6	-56	-27	-15	-2
Mtb MbtI inh	-2	-15	-1	-1	-6	8	-3
PV pol inh	104	101	103	100	115	100	101
PV pol inh intensity	108	102	97	100	131	103	103

[11] CC(C)CN(CC(C)C)C(=O)CCn1c(=O)oc2ccccc21
[12] NS(=O)(=O)c1ccc(N(C(=O)Cn2nnc3ccccc32)C(C(=O)NC2CCCC2)c2cccs2)cc1 (stereo not given)
[13] OCc1cnn(-c2ccccc2)c1
[14] NC(=O)C(Cc1ccccc1)N1C(=O)c2ccccc2C1=O (stereo not given)
[15] C/C(=N\OC(=O)c1cccc(C(F)(F)F)c1)c1csc(-c2ccno2)n1
[16] O=c1c(O)c(-c2ccc(O)c(O)c2)oc2cc(O)cc(O)c12

screen / no.	11	12	13	14	15	16
MenB inh	-19	3	-2	-24	10	-8&-2&-1
Mtb MbtI inh	-2	3	-15	-1	3	-4&-14&-6
PV pol inh	101	103	103	102	101	95&101&100&101
PV pol inh intensity	105	100	108	106	103	100&102&102&101

(continued)
[21] Cc1ccc(O)c(-c2cc(-c3ccc(C(C)(C)C)cc3)n[nH]2)c1
[22] COC(=O)C(N)CS (stereo not given)
[23] COc1ccc(N2C(=O)C(O)=CC2(OC)c2ccccc2)cc1 (stereo not given)
[24] C#CCn1nnc2ccccc21
[25] O=S(=O)(Cc1ccc(Cl)cc1)Nc1ccc2c(c1)OCCO2

screen / no.	21	22	23	24	25
MenB inh	-30	-3	-107	-19	-1
Mtb MbtI inh	.	31	.	-11	21
PV pol inh	100	101	107	103	100
PV pol inh intensity	91	101	100	99	103

[26] Cn1c(=O)n(Cc2ccccc2)c(=O)c2c1nc1n2CCCN1c1cccc(Cl)c1
[27] CCOc1cc(CNC2CN3CCC2CC3)ccc1OCc1ccccc1 (stereo not given)
[28] COC(=O)c1cc(S(=O)(=O)NCCc2ccccc2)c[nH]1
[29] Cc1nc2ccccc2c(=O)n1CCNc1cccc2ccccc12
[30] O=C(Oc1ccccc1-c1nc(-c2ccccc2)no1)c1ccccc1

screen / no.	26	27	28	29	30
MenB inh	-21	14	-5	-30	3
Mtb MbtI inh	-5	-4	-18	-97	-14
PV pol inh	104	100	98	105	102
PV pol inh intensity	108	104	100	102	104

[31] O=S(=O)(c1ccccc1)N1CCN(Cc2ccccc2)CC1
[32] COC(=O)c1ccc2c(=O)[nH]c(COC(=O)c3ccc4c(c3)OCO4)nc2c1
[33] CCn1cc(C(=O)OCC(=O)Nc2ccc(OC)cc2)c(=O)c2ccc(C)nc21
[34] Cc1csc(N(C(=O)CSc2nc(C3CC3)n(-c3ccccc3)n2)c2ccccc2)n1
[35] CCOc1ccc(C2Nn3c(nnc3-c3ccccc3)SC2C(=O)N2CCCCC2C)cc1 (stereo not given)

screen / no.	31	32	33	34	35
MenB inh	-8	13	5	-29	-5
Mtb MbtI inh	-1	3	-5	-2	2
PV pol inh	101	102	101	104	101
PV pol inh intensity	102	98	103	99	101

[36] CCOC(=O)c1nc(N2CCc3cc(OC)c(OC)cc3C2C)c2ccccc2n1 (stereo not given)
[37] O=C(C1CC(c2ccc(F)cc2)=NO1)N1CCCCC1 (stereo not given)
[38] Oc1[nH]c2ccccc2c1C=NCc1cccc(F)c1
[39] C/C(CCc1ccccc1)=N/NS(C)(=O)=O
[40] COc1ccccc1NC(=S)N/N=C/c1cccnc1

screen / no.	36	37	38	39	40
MenB inh	-5	-5	-22	-36	-25
Mtb MbtI inh	-8	2	-5	-3	11
PV pol inh	100	103	97	101	100
PV pol inh intensity	103	109	102	98	102

[41] O=C1CC(N2C(=O)C3CC=CCC3C2=O)C2COC1O2 (stereo not given)
[42] CCCCS(=O)(=O)/C=C\C1C2C=CC(C2)C1S(=O)(=O)CCCC (stereo not given)
[43] CC1CCCCN1C(=O)c1cc(I)ccc1NC(=O)c1cccnc1 (stereo not given)
[44] CC1(C)CC2CC(C)(CN2C(=O)Cn2nc(C(=O)O)c3ccccc3c2=O)C1 (stereo not given)
[45] Cc1ccc2cc(CNCc3cccnc3)c(=O)[nH]c2c1

screen / no.	41	42	43	44	45
MenB inh	8	-8	4	-15	26
Mtb MbtI inh	.	-18	-4	-6	4
PV pol inh	105	104	102	100	102
PV pol inh intensity	110	102	102	103	103

[46] COCCNC(=S)Nc1ccc2nc(N3CCN(C)CC3)cc(C)c2c1
[47] CC1CN(Cc2c(O)ccc3ccccc23)CC(C)O1 (stereo not given)
[48] Cc1cccc(-c2cc3nc4c(c(N5CCCC5)n3n2)CCCC4)c1
[49] CCOc1ccc2c(c1)c(=O)c1cccnc1n2CC(=O)Nc1cccc(C)c1C
[50] CCOC(=O)CNc1nc(Cl)nc(Nc2ccccc2)n1

screen / no.	46	47	48	49	50
MenB inh	-6	.	17	-15	-15
Mtb MbtI inh	63	-242	4	-8	4
PV pol inh	98	101	98	104	98
PV pol inh intensity	102	103	102	102	104

[51] Cc1cc(C)c2[nH]c(O)c(N=NC(=S)NCC3CCCO3)c2c1 (stereo not given)
[52] CCOC(=O)c1cc(-c2ccccc2)sc1NC(=O)COC(=O)c1ccco1
[53] CN1CCN(CCC(O)COc2ccc(OCC(O)CCN3CCN(C)CC3)cc2)CC1 (stereo not given)
[54] Cc1n[nH]c(C)c1Cc1ccc(N)cc1
[55] Cc1c(C#N)c2ccccn2c1C(=O)NN

screen / no.	51	52	53	54	55
MenB inh	-20	-8	-2	9	-1
Mtb MbtI inh	-14	-10	-20	-3	4
PV pol inh	97	101	102	101	105
PV pol inh intensity	103	107	104	102	104

[56] C=CCn1c(=O)c2ccccc2n2c(SCC)nnc12
[57] FC(F)(F)c1cccc(NCn2nc(-c3ccccc3)oc2=S)c1
[58] O=C(COC(=O)c1cccc(Cl)c1)c1ccccc1
[59] O=C(CSCc1nc2scc(-c3cccs3)c2c(=O)[nH]1)Nc1nc2c(s1)CCCC2
[60] c1ccc(-c2nc3ccccn3c2Nc2ccc3c(c2)OCCO3)cc1

screen / no.	56	57	58	59	60
MenB inh	-7	-12	-19	-26	-1
Mtb MbtI inh	-9	.	.	13	4
PV pol inh	104	104	105	131	103
PV pol inh intensity	108	109	102	144	103

[61] CCC(Sc1nnc(C)n2c1cc1oc(C)cc12)C(=O)Nc1cccc(OC)c1 (stereo not given)
[62] CCCCC(C(=O)O)n1c(O)c(C2=c3ccccc3=NC2=O)sc1=S (stereo not given)
[63] Cc1nn(CCC#N)cc1/C=N/NC(=O)CSc1nc2ccccc2[nH]1
[64] Cc1nnc(SCC(=O)N(C(C)C)C(C)C)[nH]c1=O
[65] CCn1c(SCC(=O)Nc2ccccc2SCC(N)=O)n[nH]c1=O

screen / no.	61	62	63	64	65
MenB inh	-52	-96	-8	-1	3
Mtb MbtI inh	7	32	-5	-1	-6
PV pol inh	102	99	101	102	102
PV pol inh intensity	102	100	101	104	105

[66] CC(C)OC(=O)c1cc2c(ccn2C)n1CCC#N
[67] CCCn1c(NC(=O)[C@@H](NS(=O)(=O)c2ccccc2)C(C)C)nc2ccccc21
[68] CCN(Cc1ccccc1)C(=O)c1cccc(N2C(=O)CCC2=O)c1
[69] Cc1c(C(C)C)c(=O)oc2cc(O)ccc12
[70] O=C(c1snc2ccc(Cl)cc12)N1CCN(c2ccccc2)CC1

screen / no.	66	67	68	69	70
MenB inh	-10	-24	-12	.	.
Mtb MbtI inh	26	4	2	82	18
PV pol inh	97	104	.	104	98
PV pol inh intensity	108	109	.	96	91

[71] Cc1ccc(N=C2CSc3nnc(-c4cccnc4)n3N2)cc1
[72] Cc1cc(C)c(COC(=O)c2nonc2N)c(C)c1
[73] CC(C)(C)n1c(-c2ccncc2)n[nH]c1=S
[74] CCCCn1nc(C(=O)Nc2ccc3nc(C)sc3c2)ccc1=O
[75] CSc1nc(C)nc(Sc2ccccn2)c1C#N

screen / no.	71	72	73	74	75
MenB inh	11	-25	-16	-19	-10
Mtb MbtI inh	0	.	52	3	19
PV pol inh	101	107	102	102	102
PV pol inh intensity	102	110	107	103	100

[76] CCCN(C(=O)C1CC(=O)N(c2ccccc2C(C)CC)C1)C1CCS(=O)(=O)C1 (stereo not given)
[77] CC(OC(=O)Cc1coc2cc3c(cc12)CCC3)C(=O)Nc1ccc2c(c1)OCO2 (stereo not given)
[78] COC(=O)c1scc(C)c1S(=O)(=O)Nc1ccc(C)cc1
[79] COc1ccc(-c2nnn(CC(=O)N(Cc3ccccc3)C(C)C(=O)NC3CCCC3)n2)cc1OC (stereo not given)
[80] CC(C)CCn1cnc2c(NCc3ccccc3)ncnc21

screen / no.	76	77	78	79	80
MenB inh	13	-49	-14	-7	.
Mtb MbtI inh	-2	-3	0	-5	-8
PV pol inh	101	104	107	105	100
PV pol inh intensity	104	109	104	103	97

[81] CSc1nc(-c2ccc(Cl)cc2)nn1S(=O)(=O)c1ccc(C)cc1
[82] CCCN1C(=O)C(CC(=O)Nc2ccccc2)SC1=Nc1ccc(S(=O)(=O)N2CCOCC2)cc1 (stereo not given)
[83] CC(C)NS(=O)(=O)c1ccc(OCC(=O)NC(C)(C)C)c(Cl)c1
[84] COc1ccc2nc(NC(=O)CC(C)(C)C)sc2c1
[85] CC(C)(C)C(=O)OC1OCCOC1OC(=O)C(C)(C)C (stereo not given)

screen / no.	81	82	83	84	85
MenB inh	-27	-9	-14	-44	7
Mtb MbtI inh	17	-8	-2	-12	-5
PV pol inh	100	103	99	103	104
PV pol inh intensity	100	101	100	102	107

[86] Cn1c(SCC(=O)c2ccc3c(c2)NC(=O)CO3)nc2ccccc21
[87] CCC(=O)Nc1cccc(Br)c1
[88] Cc1ccc(SCCC(=O)N2CCN(c3ncc(C(F)(F)F)cc3Cl)CC2)cc1
[89] COC(=O)c1ccc(S(=O)(=O)NNc2ncnc3cc(C(C)(C)C)sc23)n1C
[90] COc1cc(NC(=S)N(C)C)cc(OC)c1

screen / no.	86	87	88	89	90
MenB inh	-23	4	-4	16	-17
Mtb MbtI inh	2	6	-24	7	7
PV pol inh	98	102	108	104	103
PV pol inh intensity	102	98	119	103	95
